Source: PubChem
NPYLR7 agonist: activates Aedes aegypti NPYLR7 receptor | HEK293T NPYLR7/Galpha15, GCaMP6s calcium fluorescence | activation, % at 10 µM | 270,000 compounds, 0.15% hits | AID 1259423; in the data active = activation above about 40%;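 note: 0% = vehicle and 100% = reference agonist at the receptor; some compounds past the cut are filed as inactive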
NPYLR7 agonist max-min: second read-out of NPYLR7 agonist, no call of its own (marks repeat the call); activation, %; measured here: Max-Min RFU normalised activation; some inactives read as strong as hits;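 span of the calcium signal over five minutes; 0% = vehicle and 100% = native peptide agonist; compound fluorescence can raise it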
Numbers without * were called inactive; & = joins results of further samples. Only part of the results is shown; count on the stated rates, not on these rows.

SMILES	NPYLR7 agonist	NPYLR7 agonist max-min
CCN(C)C(=O)c1coc(N2CCN(Cc3ccccc3C#N)C2=O)n1	-1	-2
Cc1nc(SCC(=O)Nc2ccc(S(N)(=O)=O)cc2)n[nH]1	4	6
Cc1ncc(-c2c(-c3ccccc3)ncn2CCN2CCCCC2CO)[nH]1 (stereo unspecified)	17	5
CC(=NNC(=O)CON=C(C)c1cccs1)c1cccs1	0	2
O=C(N1C[C@@H]2C3CCC(CC3)[C@@H]2C1)C1(S(=O)(=O)c2ccccc2)CC1	3	0
CN1Cc2ccccc2N(CC(=O)NCc2n[nH]c3c2CCC3)C1=O	1	1
O=C(CSc1nc2sc3c(c2c(=O)n1Cc1ccco1)CCC3)c1cccs1	0	-1
Cc1nc2ccccc2nc1N1CCN(S(=O)(=O)c2c(F)cccc2F)CC1	-7	-8
CCOCCN1CCN(c2ncc(Cl)cc2Cl)CC1	-1	-3
CCN(C(=O)NC1CC(=O)N(c2ccc3c(c2)OCCO3)C1)C1CCCCC1 (stereo unspecified)	0	-2
COc1cn(CC(=O)NCCc2ccccc2)c(CO)cc1=O	0	-2
COc1ccc(-c2cnc(-c3ccc(CNC(=O)C=C(C)C)cc3)[nH]2)cc1	-2	-5
O=C(Cc1cccs1)Nc1cc2c(cc1Cl)NC(=O)CO2	2	1
O=C(Cn1nc(-c2ccccc2)nc1-c1ccccc1)Nc1ccc(Br)cc1	-6	-8
COCCNC(=O)C1(C)Cc2c(-c3ccc4c(c3)OCO4)ccnc2O1 (stereo unspecified)	-4	-6
N#Cc1ccccc1COC1C[C@](OCc2cccc(Cl)c2)(C(=O)NCC2CCCO2)C[C@@H](O)[C@H]1O (stereo partly specified)	6	14
CC(C)CNc1ncccn1	18	16
COC(=O)CCCC(=O)N1CCN(c2ccc(NC(=O)c3ccc(F)cc3)cn2)CC1	9	6
O=C(CCc1nnc(CCc2ccccc2)o1)NC(c1cccnc1)C(F)(F)F (stereo unspecified)	5	3
CCNC(=O)N(Cc1ccco1)Cc1nccn1Cc1ccccc1	0	9
COc1cc(Br)c(NCc2nc(C)no2)cc1OC	-1	-3
COCCNC(=O)c1ccc(OC2CCN(Cc3cccc(C)n3)CC2)c(Cl)c1	19	9
O=C(O)c1ccc(=O)n(Cc2ccccc2)c1	-3	-5
COc1ccc(Cl)c2sc(N(Cc3cccnc3)C(=O)c3ccc(C#N)cc3)nc12	9	4
Cc1ccccc1C(=O)N1C(C(=O)NCc2ccccn2)COC12CCN(C(=O)c1ccco1)CC2 (stereo unspecified)	-1	5
CC(O)c1ccc(S(=O)(=O)Nc2ccc(C(=O)NC3CCCC3)cc2)cc1 (stereo unspecified)	2	3
COc1ccc2ccccc2c1C=C1C(=O)NC(=O)NC1=O	-1	3
COc1ccc2c(c1)CCc1c(-c3ccc(C(=O)NCCCOC(C)C)cc3)n[nH]c1-2	23	15
COc1ccc(OC)c(NC(=O)N2CCC(N3CCCCC3)CC2)c1	-12	-16
CCOc1ccccc1N1CCN(C(=O)c2csc(CSc3nnc(-c4ccncc4)n3-c3ccccc3Cl)n2)CC1	-10	-1
Cc1cc(NCc2ccc(C(=O)N(C)C(C)C)cc2)nc(C)n1	6	2
O=C(CCNc1ncccn1)NCC(c1cccc(Cl)c1)N1CCCC1 (stereo unspecified)	6	0
CCn1cc(-c2cc(NCc3ccccn3)nc3[nH]ccc23)c(C)n1	11	10
O=C(c1cc(-c2ccc(F)cc2)nc2cc(-c3ccc(Cl)cc3)nn12)N1CCC2(CC1)OCCO2	12	20
CC(C)(C)C(=O)N1CC(=O)N(Cc2ccccc2)CC(O)C1 (stereo unspecified)	-1	0
O=C(NC1CC1)c1cc2n(n1)CCN(C(=O)CCc1ccc3c(c1)OCO3)C2	5	5
CC(=O)NC1CCN(C(=O)c2cnn(-c3ccc(Cl)cc3C)c2N)C1 (stereo unspecified)	1	9
CCc1cc(N2CCC(NCc3cccn3C)CC2)ncn1	-5	-4
Cc1ccc(CC2(C)C(=O)Nc3c(Cl)cccc32)cc1 (stereo unspecified)	1	1
Nc1ccc(C(=O)Nc2cccc(-c3nc(N4CCOCC4)c4oc5ncccc5c4n3)c2)cn1	-10	-16
COc1ccc2c(c1OC)C(=O)N(c1ncn[nH]1)C2	1	0
Cc1cc(C)nc(-n2nc(C(C)(C)C)cc2OCC(=O)NCc2ccccc2)n1	1	7
Cc1nc2c(c(=O)[nH]1)CSCC2	-9	-17
CC(=O)Nc1ccc(Nc2ncnc3c2cnn3Cc2ccc(Cl)cc2)cc1	-1	-3
CC(CC(=O)NN)C1(O)CCCCC1 (stereo unspecified)	6	6
Cc1ccc(Cc2nsc(N(CCc3ccccc3)Cc3ccccc3)n2)cc1	35	34
CCOC(=O)c1[nH]c(C)c(C(=O)OCC(=O)N(C)C2CCS(=O)(=O)C2)c1C (stereo unspecified)	-1	-2
O=C(c1cn(-c2ccccc2)nn1)N1CCSCC1	10	4
CC(=O)Oc1ccc(C(=O)Nc2cc(S(=O)(=O)N3CCCCC3)ccc2OC(C)C)cc1	10	1
O=C(c1coc(COc2ccccc2F)n1)N1CCc2sccc2C1	18	8
CCCCCCc1cc2cc(-c3csc(Nc4ccc(Cl)cc4Cl)n3)c(=O)oc2cc1O	22	19
Cc1ccc(CN(CC2CCN(C3CCCC3)CC2)CC2CCCO2)s1 (stereo unspecified)	2	-2
O=C(CCc1nc2ccccc2[nH]c1=O)OCc1cccc(F)c1	-2	5
CC1CC(N(C)C(=O)CNC(=O)C2CC2)CCN1Cc1ccccc1 (stereo unspecified)	19	15
CCOC(=O)CC1=C(C(=O)OCC)C(c2ccsc2)C(C#N)C(=N)O1 (stereo unspecified)	-5	-8
CC(C)(C)N(CC(=O)Nc1ccc(F)cc1)Cc1cc(=O)n2ccsc2n1	-3	30
COc1cc(/C=N\NC(=O)CSc2nnc(-c3ccc(OC)c(OC)c3)n2-c2ccccc2)ccc1O	-5	-4
C=CC(=O)Nc1cccc(Nc2nc(Nc3ccc(OCCOC)cc3)ncc2F)c1	-1	-6
CCCc1[nH]n(-c2ccccc2)c(=O)c1C1=C(N2CCN(CC)CC2)C(=O)N(c2ccc(C)cc2)C1=O	9&3	6&11
COc1nc(Nc2ccccc2[N+](=O)[O-])nc(OC)n1	5	10

Pulled by compound from above, 7 records:
SMILES	NPYLR7 agonist	NPYLR7 agonist max-min
C=CC(=O)Nc1cccc(Nc2nc(Nc3ccc(OCCOC)cc3)ncc2F)c1	-1	-6
Cc1nc2c(c(=O)[nH]1)CSCC2	-9	-17
O=C(c1coc(COc2ccccc2F)n1)N1CCc2sccc2C1	18	8
CCOC(=O)c1[nH]c(C)c(C(=O)OCC(=O)N(C)C2CCS(=O)(=O)C2)c1C (stereo unspecified)	-1	-2
COc1ccc2c(c1OC)C(=O)N(c1ncn[nH]1)C2	1	0
O=C(c1cn(-c2ccccc2)nn1)N1CCSCC1	10	4
Cc1ccc(CN(CC2CCN(C3CCCC3)CC2)CC2CCCO2)s1 (stereo unspecified)	2	-2

(list continues)
SMILES	NPYLR7 agonist	NPYLR7 agonist max-min
COc1ccc(O)c(C(=O)OCC(=O)c2ccc(N3CCCC3=O)cc2)c1	-3	-2
COc1cc(OC)nc(C(NC(=O)C2CCN(CCOc3ccc(Cl)cc3Cl)CC2)c2ccc(F)cc2)n1 (stereo unspecified)	5	5
CCCc1[nH]nc2c1C(c1ccc(F)cc1)C(C#N)C(=N)O2 (stereo unspecified)	5	5
CC(C(=O)Nc1ccc(Cl)cn1)N(C)Cc1ccsc1 (stereo unspecified)	3	1
CCOC(=O)C1(CCc2ccccc2)CCCN(C(=O)c2ccc(-n3ccnc3)cc2)C1 (stereo unspecified)	5	-7
CC(C)NC(=O)c1nnc2n1CCN(C(=O)c1cccn1C)C2	6	3
CC(=O)Oc1ccc(Cn2c(C)c(C(=O)NCCC#N)sc2=O)cc1	10	4
CC(Oc1ccccc1Cl)C(=O)N1CCOC(COc2ccc(F)cc2)C1 (stereo unspecified)	13	10
C=CCN(Cc1nccn1Cc1cccc(OC)c1)S(=O)(=O)c1ccc(OC)cc1	7	8
Cc1cc2c(SCC(=O)NCc3ccco3)ncnc2s1	-8	-11
CC(=O)N1CCN(Cn2nc(-c3ccc(Br)cc3)oc2=S)CC1	8	16
CCCNC(=O)c1cc(-c2ccc(OC)cc2)n(-c2ccccc2F)c1C	-1	-1
CCOC(=O)C1(CCOc2ccccc2)CCCN(C(=O)c2ccc(-n3cnnn3)cc2)C1 (stereo unspecified)	0	-3
O=C(CCc1nnc(CCc2ccccc2)o1)NCCCn1nnc2ccccc21	5	2
COc1ccc(CN(C(=O)c2ccco2)C2CC2)cc1OS(C)(=O)=O	-5	-4
COc1cccc(CN2CC(O)CN(C(=O)C(C)(C)C)CC2=O)c1OC (stereo unspecified)	2	12
CCCCC(=O)Nc1nc(-c2ccc(C)cc2C)cs1	-7	-9
COC(C(=O)Nc1ccnn1C1CCN(C(=O)c2sccc2C)CC1)c1ccccc1 (stereo unspecified)	6	3
CCN1CCN(C(=O)c2cc(-c3ccc(F)cc3)nc3c2c(C)nn3C2CCS(=O)(=O)C2)CC1 (stereo unspecified)	2	8
O=C(Cc1cccs1)Nc1ccc(Br)cc1Cl	0	-1
O=C(COc1ccc(Cl)cc1)NC1CCN(c2ccccc2C(=O)NC2CC2)CC1	-2	5
COCCn1c(=NC(=O)c2coc3ccccc3c2=O)sc2cc(OC)c(OC)cc21	2	1
Cc1ccc(C)c(OCCCC(C)(C)C(=O)NCCn2c([N+](=O)[O-])cnc2C)c1	-4	-8
COc1ccc(NC2CCCN(C(=O)c3ccc4sc(C)nc4c3)C2)cc1 (stereo unspecified)	0	-3
CCc1cnc(CN(C)C(=O)Nc2cnn(CC(C)C)c2)s1	1	519
COCCNC(=O)c1cccc(Nc2c(Oc3cccc(C)c3)cnn(-c3ccc(OC)cc3)c2=O)c1	11	13
CN1CCN(c2onc(-c3ccc(F)cc3)c2CN(CC2CCCO2)C(=O)c2ccc(Cl)cc2)CC1 (stereo unspecified)	8	6
Cc1cc([N+](=O)[O-])nn1CC(=O)NC(C)c1ccccc1 (stereo unspecified)	-2	-6
Cc1ccn(C(=O)c2ccc3c(c2)CCCN3S(C)(=O)=O)c(=NC2CCCCC2)c1	-2	-6
Cc1nn(S(=O)(=O)c2cccs2)c(C)c1Sc1ccccc1	1	3
CCOC(=O)c1c(C)n(-c2ccc(C)cc2)c2c1cc(O)c1ccccc12	-9	-19
C=CCc1c(C)nc2c(-c3cccc(Cl)c3)c(C)[nH]n2c1=O	-16	-18
COc1ccc(Br)cc1/C=N\NC(=O)Cn1cnc([N+](=O)[O-])n1	-9	-13
CCN1CCC(NC(=O)CN2CCN(Cc3ccccc3)CC2)CC1	3	5
COCCCN(Cc1ccc(OS(C)(=O)=O)cc1)C(=O)Nc1ccc(Cl)cc1	-6	-7
C=CCNC(=O)c1c(O)c2c([nH]c1=O)CCCC2	7	3
O=C(NCC1CCCN(S(=O)(=O)c2ccc(F)cc2Cl)C1)c1ccco1 (stereo unspecified)	18	11
Cc1ccc(Oc2cnn(C)c(=O)c2Nc2ccc(C(=O)NCCN(C)C)cc2)cc1C	-5	5
NN=C1CCCc2c1no[n+]2[O-]	3	1
N#Cc1ccc(C=NN2CCCCC2)cc1	11	8
CCc1csc(CNC(=O)c2cc(NC(C)=O)ccc2Cl)n1	-2	-5
Cc1ccc(C(=O)Nc2ccc(SCC(=O)NCc3cccs3)nn2)cc1	-3	-3
c1ccc(-c2nc(SCCN3CCCCC3)n[nH]2)cc1	-1	-3
CC(C)C(NC(=O)Cc1ccccc1)C(=O)Nc1ccccc1CN(C)C (stereo unspecified)	-1	18
CCOC(C)c1noc(-c2cc3nc(C)ccc3o2)n1 (stereo unspecified)	3	1
CC(COc1ccccc1C(F)(F)F)NC(=O)c1cc[nH]c(=O)c1 (stereo unspecified)	0	3
CCCCCCCCC(=O)N1CCN(C(=O)CSc2nnc(-c3ccco3)n2-c2ccc(OC)cc2)CC1C (stereo unspecified)	10	10
OCC1CCCCN1CCn1cnnc1 (stereo unspecified)	1	2
O=C(O)c1cccc(CC2CCN(C(=O)C3CCOC3)CC2)c1 (stereo unspecified)	5	3
O=c1c2nnn(-c3ccc(F)cc3)c2ncn1Cc1ccc(Cl)cc1Cl	8	11
CC(N(C)C(=O)c1ccsc1)C(C)(C)C (stereo unspecified)	16	9
O=S(=O)(c1ccccc1)n1nc(-c2ccccc2)nc1NCc1ccc(F)cc1	7	10
O=C(Nc1ccc(N2CCCCC2)cn1)c1cccc(N2CCOC2=O)c1	0&3	-2&2
O=C(NC1CCN(c2ccccc2C(=O)NCc2ccc(F)cc2)CC1)c1cccc(Br)c1	-7	-7
CC(C)c1noc(C(C)Sc2ccc3c(c2)OCCCO3)n1 (stereo unspecified)	1	0
CCOCCn1cc(C2CCN(C(=O)COC(C)=O)CC2)c2ccccc21	15	5
N#Cc1ccc(Cc2cnc(NC(=O)c3ccccn3)s2)c(C(F)(F)F)c1	1	1
COc1cccc(C(=O)N2CCN(C(=O)CCN3CCc4sccc4C3c3ccccc3)CC2)c1 (stereo unspecified)	8	-2
CCc1sc(-c2nnc(CSc3nnc(-c4ccco4)o3)o2)cc1C	-2	5

Single records (already shown).
O=c1c2nnn(-c3ccc(F)cc3)c2ncn1Cc1ccc(Cl)cc1Cl as listed: NPYLR7 agonist = 8; NPYLR7 agonist max-min = 11
CC(C)c1noc(C(C)Sc2ccc3c(c2)OCCCO3)n1 (stereo unspecified) as listed: NPYLR7 agonist = 1; NPYLR7 agonist max-min = 0
N#Cc1ccc(Cc2cnc(NC(=O)c3ccccn3)s2)c(C(F)(F)F)c1 as listed: NPYLR7 agonist = 1; NPYLR7 agonist max-min = 1
